# Hsc70 ATP site: small molecules displacing fluorescent ligand from Hsc70 – biochemical, fluorescence polarization, primary screen (AID 568). Hsc70 fluorescence polarization, probe displacement; higher % means a stronger effect; strong numbers were not always called active. displacement, % at 20 µM, or IC50 in µM where a hit was titrated. 83,000 tested, under 10 active;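 active = displacement above 50% without optical interference and an IC50 on retest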;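 also: ATPase domain with a fluorescein-tagged ATP probe; 0% = vehicle and 100% = excess ADP; read after one hour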
# WNV NS2B-NS3 inh: WNV NS2B-NS3 proteinase inhibition. actives 0.18% (n = 65,000). AID 577. WNV NS2B-NS3 protease, fluorogenic substrate Ex360/Em465; stronger effect = lower value. P06935. z-score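 (tested at a level between 10 and 100 µM)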;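 active = z-score at -3 or under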;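 also: score is relative to mean and spread of the compound wells of a plate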
# Target sequence (P06935 1371-1501 limits assumed): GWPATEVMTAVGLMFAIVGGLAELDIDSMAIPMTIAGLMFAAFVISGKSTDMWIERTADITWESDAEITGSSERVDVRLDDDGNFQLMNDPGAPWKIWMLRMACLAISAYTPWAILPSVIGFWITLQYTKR
# Target sequence (P06935 1502-1679 limits assumed): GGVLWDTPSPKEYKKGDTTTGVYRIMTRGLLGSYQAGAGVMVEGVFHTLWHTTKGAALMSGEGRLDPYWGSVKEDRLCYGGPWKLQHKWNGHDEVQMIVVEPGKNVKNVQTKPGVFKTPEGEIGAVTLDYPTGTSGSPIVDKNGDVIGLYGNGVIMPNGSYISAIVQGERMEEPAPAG
# MT1-MMP reporter: inhibitors of MT1-MMP promoter transcription, cell-based, luciferase reporter, luminescence (AID 618). MT1-MMP promoter luciferase reporter cells, luminescence. calls from a first round at 10 µM; hits with a dose series show EC50 in µM. actives 0.62% (n = 87,000);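 active = over half of the reporter light lost at 10 µM or EC50 under 50 µM; inactive = the rest and hits that failed the dose series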;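 also: actives suppress MT1-MMP promoter-driven transcription so potencies describe inhibitors; HT1080 fibrosarcoma cells; overnight exposure; toxic or luciferase-blocking compounds were not removed from the actives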
# * hit, by the source's call; i = inactive; x = no result given.
# A first look, 2 compounds:
SMILES,Hsc70 ATP site,WNV NS2B-NS3 inh,MT1-MMP reporter
Cc1ccc(S(=O)(=O)/C(C#N)=C/c2c(N3CCOCC3)nc3ccccn3c2=O)cc1,1.3%,x,i
COc1ccc(OC)c(NC(=O)CCC(=O)Nc2nnc(C(F)(F)F)s2)c1,-0.3%,1.62,i

# The whole of this part, repeating the preview:
SMILES,Hsc70 ATP site,WNV NS2B-NS3 inh,MT1-MMP reporter
Cc1ccc(S(=O)(=O)/C(C#N)=C/c2c(N3CCOCC3)nc3ccccn3c2=O)cc1,1.3%,x,i
COc1ccc(OC)c(NC(=O)CCC(=O)Nc2nnc(C(F)(F)F)s2)c1,-0.3%,1.62,i
CCN1CCN(CCCNC(=O)c2cn(CCOC)c(=O)c3c2c2ccccc2n3C)CC1,-8.7%,-0.43,i
CCN(CC)CCN1C(=O)C(O)=C(C(=O)c2cccs2)C1c1ccc(C)o1 (stereo unspecified),-9.2%,-0.62,i
COc1ccccc1OCCCn1c(C)c(C#N)c2ccccc21,-3.3%,0.35,i
Cc1ccc(-n2ncc(C(=O)O)c2C2CCN(C(=O)OC(C)(C)C)CC2)cc1,-13.8%,0.87,i
COc1ccc([N+](=O)[O-])cc1C1NN=C(c2cccc3ccccc23)S1 (stereo unspecified),-0.2%,x,i
CC(C)OC(=O)Cn1c(=O)sc2ccccc21,5.1%,1.36,i
CCn1cc(CNC(=O)CCc2ccc(OC)cc2)cn1,2.9%,0.46,i
CC1(C)CC(N(Cc2ccco2)C(=O)Cc2ccccc2)CCO1 (stereo unspecified),-3.8%,0.48,i
Cn1c(CSCc2ccccc2Cl)nnc1SCC(=O)Nc1nccs1,-1.0%,-0.84,i
NC(=O)c1c(NC(=O)Cc2cccs2)sc2c1CCC2,-1.7%,-0.6,i
Cc1ccc(Cl)cc1NS(=O)(=O)c1c(C)[nH]c(=O)[nH]c1=O,0.8%,-0.89,i
COc1ccc(NC(=O)CCn2nc(C)cc2C)cc1,-4.3%,1.81,i
CCCCc1c(C)c2ccc(OC)c(/C(C)=N\O)c2oc1=O,-0.2%,1.33,i
Cc1ccc(C)c2[nH]c(=O)c(CCNC(=O)C(C)C)cc12,-1.0%,-0.45,i
COc1cccc(Nc2nc(N)nc(-c3oc4ccccc4c3C)n2)c1,1.6%,x,i
COc1ccc2[nH]c(=O)c(CN(C(=O)c3ccncc3)C(C)C)cc2c1,-0.6%,-0.33,i
CCOC(=O)N1CCN(C(=O)COc2cc(=O)n(C)c3ccccc23)CC1,-2.8%,0.76,i
CCOc1ccc(CN(C(=O)c2ccco2)C2CCS(=O)(=O)C2)cc1 (stereo unspecified),-1.4%,1.21,i
Cc1ccc(OCC(O)CN2CCN(c3ccccc3)CC2)cc1 (stereo unspecified),5.9%,-0.63,i
CC(=O)Nc1nonc1-c1nc2ccccc2n1N(C(C)=O)C(C)=O,0.2%,-1.35,i
O=C(CSc1n[nH]c(-c2ccncc2)n1)NCCc1ccccc1,1.6%,-0.78,i
C=CCNC(=O)CSc1nnc(-c2ccncc2)n1CCc1ccccc1,2.3%,x,i
CC(C)C(=O)NCCc1nc2ccccc2n1C,2.6%,-0.27,i

# Continued.
SMILES,Hsc70 ATP site,WNV NS2B-NS3 inh,MT1-MMP reporter
N#Cc1ccc(COC(=O)Cn2nnc(-c3ccccc3)n2)cc1,-3.2%,-0.32,i
O=C(O)CCC(=O)Nc1ccc(N2CCCCC2)c(C(=O)O)c1,5.2%,-0.54,i
COc1ccccc1OCC(O)Cn1c(=N)n(CCN2CCCCC2)c2ccccc21 (stereo unspecified),7.5%,2.11,i
CC(C)Cc1nnc(NC(=O)CCC(=O)Nc2ccc(F)cc2)s1,-0.4%,x,i
COc1ccc(-c2noc(CN(C)S(=O)(=O)c3ccc(C)cc3)n2)cc1,-22.1%,0.19,i
COc1ccc(Cl)cc1C(=O)n1nc(C)cc1C,6.3%,1.18,i
CN1CCN(C(=O)c2cnn3c(C(F)F)cc(C4CC4)nc23)CC1,4.9%,0.35,i
C=CCn1c(SCC(=O)NCc2ccccc2)nnc1C1CCCCC1,2.6%,x,i
Cc1ccc(C)c(OCCOCCN2CCOCC2)c1,3.8%,-0.41,i
CCN1/C(=C/C(C)=O)Sc2ccc(OC)cc21,1.2%,-0.79,i
COc1ccc(C(=O)/C=C/Nc2cccc(C)n2)cc1OC,-5.9%,-0.73,i
CCCCNc1cc(=O)n(C)c(=O)n1C,-6.3%,0.08,i
COc1ccc(CNC(=O)c2cnc3n(c2=O)CCS3)cc1,2.6%,-1.6,i
Cc1ccc(C(=O)c2ccc(N3CCOCC3)c(F)c2)cc1,-10.0%,x,i
CCOC(=O)CNC(=O)CCNS(=O)(=O)c1ccc2c(c1)c(=O)n(C)c(=O)n2C,25.4%,x,i
CCCCC(CC)C(=O)Nc1ccccc1C#N (stereo unspecified),0.9%,-0.48,i
COc1ccc(OC)c(NC(=O)Nc2ccc(Cl)cc2)c1,-1.6%,x,i
Cc1ccccc1NC(=O)c1cc(S(=O)(=O)N2CCOCC2)cs1,-0.9%,1.58,i
CC(=O)c1cccc(NC(=O)N2CCc3ccccc3C2)c1,4.1%,0.95,i
COc1ccc(CC(NC(C)=O)C(=O)NC2CCN(C(=O)Nc3ccc(C#N)cc3)CC2)cc1OC (stereo unspecified),8.2%,-0.8,i
CC1(C)C(N(O)C(=O)Nc2ccc(Cl)cc2)N(c2ccc(Cl)cc2)C(=O)N1CC(=O)NN (stereo unspecified),0.4%,x,i
COc1ccc(C(=O)N2c3cc4c(cc3C(C)=CC2(C)C)OCO4)cc1,3.9%,-0.61,i
COc1ccc(C(C(=O)NC2CCCC2)N(CCN2CCOCC2)C(=O)c2ccc(OC)c(OC)c2)cc1 (stereo unspecified),1.3%,x,i
CC1CN(c2nc3ccccn3c(=O)c2/C=C(\C#N)S(=O)(=O)c2ccccc2)CC(C)O1 (stereo unspecified),-3.2%,0.02,i
CC(C)OC(=O)c1cc2c(ccn2C)n1CC(=O)N1CCC(Cc2ccccc2)CC1,-1.3%,x,i

# Entries of single compounds, looked up by structure. Order of screens: Hsc70 ATP site, WNV NS2B-NS3 inh, MT1-MMP reporter
# Cc1ccc(S(=O)(=O)/C(C#N)=C/c2c(N3CCOCC3)nc3ccccn3c2=O)cc1 in the list: 1.3%, x, i
# CCCCNc1cc(=O)n(C)c(=O)n1C in the list: -6.3%, 0.08, i
# Cc1ccc(OCC(O)CN2CCN(c3ccccc3)CC2)cc1 (stereo unspecified) in the list: 5.9%, -0.63, i

# Following part
SMILES,Hsc70 ATP site,WNV NS2B-NS3 inh,MT1-MMP reporter
Cc1csc(NC(=O)CNC(=O)OCc2ccccc2)n1,-3.9%,-0.23,i
O=C(COc1ncnc2sccc12)Nc1ccc2c(c1)OCCO2,-5.8%,-1.1,i
S=C1N(c2ccccc2)C(c2ccccc2)N2CCCN12 (stereo unspecified),-3.8%,x,i
Cc1nnc(SCC(=O)Nn2cnnc2)s1,-0.6%,0.2,i
O=C(Nc1ccc(-c2cn3ccsc3n2)cc1)C1CC1,-1.6%,1.48,i
Cc1cc(=O)[nH]c2ccccc12,-2.6%,0.04,i
O=c1c2cnn(-c3ccccc3)c2ncn1Cc1cccnc1,4.0%,1.98,i
CCOc1cc2c3c(c1)C1(C(=O)N3C(C)(C)C=C2C)C(C#N)=C(N)Oc2cc(O)ccc21 (stereo unspecified),2.7%,0.00613,i
CC(C)(C)NC(=O)c1ccncc1,-5.2%,x,i
CN(C)CCCC1(O)c2ccccc2C=Cc2ccccc21,-1.8%,x,i
Cn1c(SCC(=O)N2CCCCCC2)nc2c([nH]c3ccccc32)c1=O,-3.0%,1.69,i
Cc1nn(C)c(C)c1S(=O)(=O)N1CCCC(C(=O)N2CCN(c3ccccc3)CC2)C1 (stereo unspecified),-2.9%,0.45,i
O=S(=O)(c1cc(-c2nnc(-c3ccc(Br)cc3)o2)ccc1Br)N1CCCCCC1,0.3%,x,i
CCOc1ccc2oc(-c3ccccc3)c(C(=O)O)c2c1,6.5%,1.2,i
CCc1nc2ccccc2c(=O)n1NC(=O)c1c(O)c2cccc3c2n(c1=O)CCC3,0.1%,1.02,i
CC1CC(C)CN(S(=O)(=O)c2cccc3cccnc23)C1 (stereo unspecified),0.1%,-0.04,i
COc1ccccc1S(=O)(=O)Cc1ccc(C(=O)N2CCOCC2)o1,2.3%,-0.01,i
Cc1ccc(/C=N/Nc2nc(Cl)c(Cl)cc2Cl)s1,-10.2%,x,i
COc1ccc(Cl)cc1-n1c(C)cc(C(=O)O)c1C,2.5%,0.36,i
CCn1c(SCC(=O)N2CCc3ccccc32)nnc1-c1c[nH]c2ccccc12,-1.8%,-1.77,i
NC(=O)C1CCN(C(=O)CN2C(=O)c3ccccc3S2(=O)=O)CC1,-0.3%,-0.4,i
O=[N+]([O-])c1ccc(N2CCN(c3ccc(Cl)nn3)CC2)cc1NC1CC1,3.7%,x,i
CCCCNC(=O)c1ccc2nc(-c3ccco3)c(-c3ccco3)nc2c1,1.6%,-1.41,i
c1cncc(CNC2CCCc3ccccc32)c1 (stereo unspecified),-1.6%,0.03,i
O=C(Nc1nc(-c2ccc(-c3ccccc3)cc2)cs1)C1CCCO1 (stereo unspecified),-7.0%,x,i

# The listing continues:
SMILES,Hsc70 ATP site,WNV NS2B-NS3 inh,MT1-MMP reporter
CCOc1ccc(CNC(=O)C2CCC(=O)N2C2CCCC2)cc1OC (stereo unspecified),-7.0%,-0.32,i
Cc1ccc(NC(=O)N(Cc2ccc3c(c2)OCO3)Cc2cc3cc4c(cc3[nH]c2=O)OCCO4)cc1,1.8%,0.19,i
CN(c1ccc(C(=O)Nc2nccs2)cc1)S(=O)(=O)c1ccccc1,0.1%,0.99,i
CSc1ccn(CCC(=O)O)c(=O)n1,-1.2%,0.91,i
CCC(CC)COC(=O)C(C#N)c1nc2ccccc2nc1N1CCN(CC)CC1 (stereo unspecified),-9.6%,-0.35,i
Cc1nn(-c2ccccc2)c2sc(C(=O)O)cc12,-0.3%,-0.5,i
O=C(NC1CCCCC1)c1ccccc1NC(=O)C1CC(=O)N(c2ccccc2)C1 (stereo unspecified),-0.4%,x,i
Cc1ccc(N(CN2C(=O)NC(C)(C)C2=O)CN2C(=O)NC(C)(C)C2=O)cc1,3.8%,0.8,i
CC(O)/C=C/c1ccc2ccccc2n1 (stereo unspecified),4.8%,-0.81,i
CN1CCN(C(=O)CN(Cc2ccc(Cl)cc2)S(C)(=O)=O)CC1,2.0%,-0.03,i
CCCOc1ccc(/C(O)=C2/C(=O)C(=O)N(CCN3CCOCC3)C2c2ccccc2)cc1 (stereo unspecified),-1.2%,0.54,i
CC(O)c1nc2ccccc2n1Cc1nnc(-c2ccc(Cl)cc2)o1 (stereo unspecified),-1.9%,1.94,i
CCOc1ccc2[nH]c(C)c(CN3CCOCC3)c(=O)c2c1,1.6%,-0.41,i
O=C(NC1CC1)C1CCN(c2ccc(S(=O)(=O)N3CCOCC3)cc2)CC1,-3.6%,-0.02,i
CCCCC(CC)CNC(=O)CCS(=O)(=O)c1cccc2nonc12 (stereo unspecified),-3.1%,0.54,i
CCC1Oc2ccccc2N(Cc2ccccc2C)C1=O (stereo unspecified),-2.3%,x,i
CCOC(=O)C1CCCN(CCC(=O)Nc2cccc(F)c2)C1 (stereo unspecified),-4.3%,-0.86,i
Cc1ccc(Cn2nnc3c(=O)[nH]c(C4CCN(S(=O)(=O)c5ccc(C)cc5)CC4)nc32)cc1,1.3%,-0.37,i
Cc1cc(C)nc(SCC(=O)O)n1,-1.0%,-1.1,i
CCOC(=O)C1=NN(c2cccc(C)c2)C2(S1)SC(C(C)=O)=C(C)N2c1ccccc1 (stereo unspecified),-1.2%,x,i
c1ccc(Cn2nnc3c(N4CCOCC4)ncnc32)cc1,-2.9%,0.14,i
O=C1CN=C(Nc2ccccc2)N1Cc1cccs1,-0.5%,x,i
O=S(=O)(NC1CCCCCCC1)c1cccs1,-10.0%,1.18,i
CC1(C)Cc2c(sc3c2c(=N)n(Cc2ccco2)c(=O)n3Cc2ccccc2)CO1,-2.0%,0.89,i
Cc1cccc(NS(=O)(=O)c2ccc(Oc3ccccc3)cc2)n1,-0.9%,1.28,i

# Next part
SMILES,Hsc70 ATP site,WNV NS2B-NS3 inh,MT1-MMP reporter
COC(=O)C1=C(N)OC2=C(C(=O)CC(C)(C)C2)C1c1cccs1 (stereo unspecified),-5.6%,0.65,i
O=C(NC(Cc1c[nH]c2ccccc12)c1nnc2n1CCCCC2)c1ccccc1 (stereo unspecified),-1.5%,x,i
Cc1ccc(-c2nc3ccccc3[nH]2)s1,0.4%,-0.6,i
Cc1[nH]c(C)c(C(=O)O)c1CNC1CCCCC1C (stereo unspecified),-4.0%,-1.23,i
COc1ccc(OC)c(-c2cc(C(=O)NCc3ccco3)no2)c1,3.6%,0.12,i
Cc1ccc(SCC(=O)NCCSC(C)(C)C)cc1,-1.2%,x,i
Cc1ccc(NC(=O)N2CCOCC2)c(C)c1,2.4%,x,i
O=C(NC1CCCCCCC1)c1c(O)c2ccccc2[nH]c1=O,-2.6%,-0.03,i
CCOC(=O)CSC(C)C(=O)Nc1nnc(C(C)C)s1 (stereo unspecified),6.8%,0.3,i

# Two successive entries from above:
SMILES,Hsc70 ATP site,WNV NS2B-NS3 inh,MT1-MMP reporter
COC(=O)C1=C(N)OC2=C(C(=O)CC(C)(C)C2)C1c1cccs1 (stereo unspecified),-5.6%,0.65,i
O=C(NC(Cc1c[nH]c2ccccc12)c1nnc2n1CCCCC2)c1ccccc1 (stereo unspecified),-1.5%,x,i

# Source: PubChem BioAssay (several laboratories)
